# Anthrax LT inh = blocks cellular internalization of anthrax lethal toxin; 0.67% of 70,000 active; Potency, µM (top dose mostly 40 µM), without a hit: at the highest dose activity change, negative = inhibition, hits mostly inhibitors; Cells, anthrax lethal toxin internalization, FRET ratio (460/530); active = well fitted falling ratio curve with the 530 nm signal flat; inconclusive = other ratio curves, or a change in one channel alone; inactive = flat curves in the ratio and both channels; the % refers to the ratio; further: on the % scale 0 is the no-effect control and ±100 the full control effect; nearly all actives have a fitted effect of over 50% in size; tested in ME-180 cells; beta-lactamase reporter
# Prx2 Sm inh = inhibitors of Schistosoma mansoni peroxiredoxin 2; S. mansoni Prx2 activity coupled to TGR/GSH (TGR is thioredoxin glutathione reductase), NADPH fluorescence loss, qHTS; some inactives read as strong as hits; Potency, µM; 0.07% of 65,000 active; AID 448; active means full or partial inhibition curve with a strong effect at the top dose; inconclusive means weaker partial or single-point curve; inactive means no accepted curve; further: series up to 57 µM; many of its hits are not listed in these tables
#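 Prx2 inhibition was measured as reduced NADPH consumption when electrons flowed from NADPH through TGR and glutathione to Prx2 and H2O2. Plates were read kinetically over 8 min; enzyme reagents were held at 4 deg C during dispensing.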
# * = called active by the depositor; ? = inconclusive; / = no result given; [ ] = dose if it differs, or a comment. Potency means the concentration at half of the fitted maximal effect. Some of the compounds tested, so the mix of outcomes need not match the whole.
SMILES,Anthrax LT inh,Prx2 Sm inh
CCOCCn1c(=O)c2c(nc3n2CCN3c2ccc(CC)cc2)n(C)c1=O,-8%,>57
CC1CCCCN1C(=O)N[C@@H](Cc1ccccc1)C(=O)O (some centres not stated),-12%,>57
Cc1noc(C)c1COC(=O)c1ccccc1Oc1ccccc1,-3%,>57
COc1ccc(Nc2ncccc2C(=O)Nc2ccccc2)cc1,-20%,>57
Cc1noc(C)c1C(=O)N1CCC[C@@]2(CCN(C(=O)NC(C)C)C2)C1,6%,>57
CCCn1c(CN(Cc2ccccc2)Cc2ccccc2)nc2c1c(=O)n(C)c(=O)n2C,14%,>57
CCCCc1cc(=O)oc2cc(C)c(CN3CCCC3)c(O)c12,17%,>57
CCOC(=O)c1c(C)oc2c(CN3CCN(C)CC3)c(Br)c(OC)c(O)c12,-9%,>57
CCc1ccc(C(C)NC(=O)c2cc(C)oc2C)cc1 (configuration not stated),-9%,>57
CCOC(=O)C(C)n1cnc2c(nnn2-c2ccc(C)cc2)c1=O (configuration not stated),-4%,>57
CCOC(=O)c1[nH]c(C)c(C(=O)Nc2cc(Cl)ccc2C)c1C,?,>57
CC(C)n1c(CCCO)nc2ccccc21,-5%,/
O=c1cc(CSc2ccc(Cl)cc2)nc(N2CCOCC2)[nH]1,2%,>57
c1ccc2c(c1)ncn2Cc1nnc2sc(-c3ccc4c(c3)OCO4)nn12,?,>57
C(=C\c1ccco1)/C=N/n1cnnc1,2%,>57
COc1ccc(OC(=O)c2cccc(S(=O)(=O)N3CCCC3)c2)cc1,-10%,>57
O=C(CSc1nnc(-c2ccc(Br)cc2)n1C1CCCCC1)N1CCCC1,14%,>57
COc1ccc(C(=O)CSc2nc(SC)ns2)cc1OC,-12%,>57
O=C(CN1CCOCC1)N1CCN(C(=O)CN2CCOCC2)CC1,-5%,>57
COC(=O)c1ccc(C(=O)OC)c(NC(=O)CCC(=O)O)c1,?,>57
O=C(Nc1ccc2oc(-c3ccccc3F)nc2c1)c1ccc2c(c1)OCCO2,10µM*,>57
O=C(Cn1c(C2CC2)nc2ccccc2c1=O)Nc1ccc(Br)cc1,12%,>57
CC1CC1C(=O)OCc1cc(=O)n2cc(Br)ccc2n1 (configuration not stated),12%,>57
COC(=O)Cc1c[nH]c2ccc(OCC(O)CNC(C)C)cc12 (configuration not stated),/,>57
CCOC(=O)c1cnc(SCC(=O)N2CCN(C(=O)c3ccco3)CC2)nc1N,4%,>57
CC(C)c1ccc(OCc2ccc(C(=O)N3CCN(c4ccccn4)CC3)cc2)cc1,-5%,>57
Cc1ccccc1-c1nnc(SCc2ccccc2)o1,?,>57
CCC(C)[C@H](NC(=O)Nc1ccc2c(c1)OCCO2)C(=O)O (some centres not stated),4%,>57
O=C(OCn1nnc2ccccc2c1=O)c1ccc2c(=O)n3c(nc2c1)CCC3,-19%,>57
Cc1cc(C)n(CC(=O)NC2CCCCC2)n1,-17%,>57
COc1ccc(CN(C2CCCC2)S(=O)(=O)c2ccc(-n3cnnn3)cc2)cc1OC,-15%,>57
Cc1cc(NS(=O)(=O)c2ccc(Nc3nc(-c4sc(N)nc4C)cs3)cc2)no1,20%,/
COC(=O)c1ccccc1S(=O)(=O)Nc1ccc2cn[nH]c2c1,3%,>57
COC(=O)c1ccc(C(NC(=O)OCc2ccccc2)/C(=C/[C@@H](C)C(=O)NCCF)c2cccnc2)cc1 (some centres not stated),-14%,/
C=CCOCC1CN2C(CCC(C)C2c2ccc(Br)cc2)C(=O)O1 (configuration not stated),-10%[8 µM],/
COc1cccc(CN(Cc2cccnc2)S(=O)(=O)c2ccc(-n3cnnn3)c(C)c2)c1,0%,>57
CCCc1cc(Nc2cccc(OCC)c2)n2ncnc2n1,-3%,>57
CCN=c1scc(C)n1/N=C/c1ccsc1,2%,>57
CS(=O)(=O)N1CCC2(CC1)CN(c1ccc(-c3ccccc3)cc1)C2,5%,>57
O=C(CSc1nnnn1-c1ccc2c(c1)CCC2)Nc1ccc2c(c1)OCCO2,-13%,>57
NC(=O)CSCc1ccc(Br)cc1,-1%,>57
O=S(=O)(c1ccc(Br)cc1)N1CCN(c2cc(-c3ccccc3)nc3ncnn23)CC1,?,>57
COc1cccc(-c2ccc3ncnc(NCc4ccccc4OC)c3c2)c1,4µM*,>57
CCn1c(=O)cc(SCC(=O)N2CCN(C3CCCCC3)CC2)c2ccccc21,1%,>57
CCOC(=O)c1ccc(NC(=O)N2CCN(CCc3ccccc3)CC2)cc1,9%,>57
CCOC(=O)C1CCCN(CC(=O)/C=C2/N(C)c3ccccc3C2(C)C)C1 (configuration not stated),9%,>57
c1ccc(Nc2ncnc3c2oc2ccccc23)cc1,17%,>57
O=C(O)C[C@@H]1CCCc2ccccc2[C@H]1O,7%,>57
Cc1cccc(OCc2nc(C#N)c(N3CC(C)CC(C)C3)o2)c1 (configuration not stated),?,>57
O=C1CC(N2CCOCC2)C(=O)N1CCc1ccccc1 (configuration not stated),-13%,>57
Brc1ccccc1-c1nc(-c2ccccc2)no1,-24%,/
Cc1cc(N2CCOCC2)c2c(N)c(C)cc(C)c2n1,11%,/
Cc1nc(CNS(=O)(=O)c2cccc(F)c2)cs1,-5%,>57
COc1cc(C2c3c(oc4ccccc4c3=O)C(=O)N2Cc2cccnc2)cc(OC)c1OC (configuration not stated),-11%,>57
O=C(CSc1nc2c(c(=O)n1-c1ccc(Cl)cc1)SCC2)Nc1nccs1,4%,>57
CCOCCN(C=O)c1cccc(OC)c1,-16%,>57
COc1cccc(CCC(=O)O)c1OC,4%,>57
Cc1nn(-c2ccccc2)c(C)c1C(=O)OCC(=O)Nc1ccc2c(c1)OCO2,6%,>57
CC(=O)NC(CCS(C)(=O)=O)C(=O)Nc1ccc(F)cc1Cl (configuration not stated),-14%,>57
Cc1ccc(C(C)C)c(OCc2nnc(SCC(=O)Nc3ncc(C)s3)n2C)c1,-4%,>57
# (next part)
SMILES,Anthrax LT inh,Prx2 Sm inh
CC1Cc2ccccc2N1C(=O)CSc1nnc(Cn2nnc3ccccc32)n1C (configuration not stated),-4%,>57
CC1=C(C(N)=O)C(c2ccccn2)n2nc(SCc3ccccc3)nc2N1 (configuration not stated),-2%,>57
CCOc1ccccc1C(=O)Nc1nncs1,9%,>57
CCCCOC(OCCCC)[C@H](O)CSc1ccc2ccccc2c1,0%[8 µM],/
CC(C)c1ccc(C(=O)Nc2ccc(N3CCOCC3)cc2)cc1,?,/
O=C(O)CCCCCNCc1ccncc1,?,>57
COc1ccc(Oc2ncc3nc(-c4ccc(Cl)cc4)c(=O)n(C[C@H]4CCCO4)c3n2)cc1,?,>11
N#Cc1sc2nc(-c3ccccc3)cc(-c3ccco3)c2c1N,?,>57
CN1CCN(CC(=O)N2c3ccccc3C(C)(c3ccccc3)CC2(C)C)CC1 (configuration not stated),-11%,/
O=C(NC1CCCCC1)n1c(=O)oc2ccc(Cl)cc21,-4%,>57
CCOc1ccccc1NC(=O)N1CCC(NC(=O)c2cccc(C)c2)CC1,-16%,>57
O=C(CSc1cccc[n+]1[O-])c1cc2ccccc2o1,-8%,>57
O=C(Cc1cccs1)Nc1ccc(NC(=O)c2ccco2)cc1,-7%,>57
C=CCn1c(O)c(C(CC)=Nc2ccc(N(CC)CC)cc2)c(=O)[nH]c1=O,/,>57
Cc1ccc(N2CC(C(=O)Nc3ccc4c(c3)OCO4)CC2=O)cc1 (configuration not stated),11%,>57

# Arranged by SMILES length (low to high): part of the list above
SMILES,Anthrax LT inh,Prx2 Sm inh
CCOCCN(C=O)c1cccc(OC)c1,-16%,>57
Cc1cc(C)n(CC(=O)NC2CCCCC2)n1,-17%,>57
O=C(O)C[C@@H]1CCCc2ccccc2[C@H]1O,7%,>57
CCOC(=O)C(C)n1cnc2c(nnn2-c2ccc(C)cc2)c1=O (configuration not stated),-4%,>57

# The list goes on.
SMILES,Anthrax LT inh,Prx2 Sm inh
COc1ccc(-c2nnc(SCC(=O)Nc3cc(F)ccc3C)o2)cc1,-14%,>57
CCN(CC)CC(=O)Nc1c(C)cc(C(C)(C)C)cc1C,/,>57
COc1ccccc1-n1c(C)nnc1SCC(=O)Nc1cc(C)cc(C)c1,1%,>57
O=C(Cn1cnc2c(nnn2Cc2ccc(Cl)cc2)c1=O)NCC1CCCO1 (configuration not stated),-13%,>57
CC[C@H](C)C(=O)O[C@H]1CCC=C2C=C[C@H](C)[C@H](CC[C@@H]3C[C@H](O)CC(=O)O3)[C@H]21,?,>57
Cc1nnc(NC(=O)c2ccccc2F)s1,-10%,>57
CC1CCc2nn(CC(=O)NC3CCCC(C)C3C)cc2C1 (configuration not stated),-28%,>57
CC(C)CC(NC(=O)c1ccco1)C(=O)Nc1ccc2c(c1)OCCO2 (configuration not stated),13%,>57
COc1ccc(OC2C=CC(c3ccccc3)OC2CO)c(C(C)(C)C)c1 (configuration not stated),-19%[8 µM],/
CCC(=O)Nc1ccc(NC(=O)CSc2nnc(C(C)C)n2C)cc1,14%,>57
O=C(Nc1ccccc1)N1CCC(c2ccccc2)C1 (configuration not stated),3%,>57
COc1cc(NC(=O)C2CC2)c(C(=O)O)cc1OC,1%,/
O=C(NCCCN1CCN(c2cccc(Cl)c2)CC1)c1cccc(N2CCCC2=O)c1,3%,>57
Cc1cc2c(nc1C)CCCN2C[C@H](O)CN1CCCc2nc(-c3ccc(Br)cc3)ccc21,11%[8 µM],/
COc1ccccc1OCC(=O)NCCc1nc2ccccc2[nH]1,-7%,>57
Cc1ccc(C(CC(=O)N2CCCC2)c2ccccc2)c(O)c1C (configuration not stated),-5%,>57
CCOC(=O)c1oc2ccccc2c1NC(=O)COc1ccc(F)cc1,-5%,>57
O=C(CSCc1ccc(F)cc1)NC1CCCC1,-16%,>57
O=C(NCCCN1CCCCCC1)[C@@H](c1ccccc1)C1CCCCC1,?,>57
COc1cccc(C2=NOC(C(=O)Nc3cccc(C(C)=O)c3)C2)c1 (configuration not stated),0%,>57
CN(C)C(=O)c1ccc(-c2ccc3ncnc(N(C)Cc4ccco4)c3c2)cc1,-13%,>57
O=[N+]([O-])c1ccc(CCO)cc1,19%,/
CCS(=O)(=O)c1nc2ccccc2n1Cc1ccccc1Cl,-9%,>57
CCOC(=O)Cn1c2c(c(=N)c3c1CCC3)CCC2,?,>57
COc1ccccc1Nc1nc(N)nc(CSCCO)n1,6%,>57
Cc1c(C(=O)O)sc2ncnc(N3CCCCC3C)c12 (configuration not stated),-8%,>57
Cc1cc(NC(=O)CSc2ccc3nnc(-c4ccc(F)cc4)n3n2)no1,2%,>57
CCCCN(C)CCNC(=O)Cn1c(=O)sc2ccccc21,-16%,>57
COc1cc2nc3c(c([Si](C)(C)C(C)(C)C)c2cc1OC)Cn1c-3cccc1=O,-5%,>57
O=C(c1cccc(C(=O)N2CCN(c3ccc(F)cc3)CC2)c1)N1CCN(c2ccc(F)cc2)CC1,-24%,/

# Reformatted with two lines to a compound: entries from further up
# Screens in order – Anthrax LT inh | Prx2 Sm inh
COc1cccc(C2=NOC(C(=O)Nc3cccc(C(C)=O)c3)C2)c1 (configuration not stated)
 : 0% | >57
CCS(=O)(=O)c1nc2ccccc2n1Cc1ccccc1Cl
 : -9% | >57
O=C(NCCCN1CCCCCC1)[C@@H](c1ccccc1)C1CCCCC1
 : ? | >57

# Compound profiles, as listed above. Order of values: Anthrax LT inh, Prx2 Sm inh
# `CCOC(=O)Cn1c2c(c(=N)c3c1CCC3)CCC2` as listed: ?, >57
# `CCOC(=O)c1oc2ccccc2c1NC(=O)COc1ccc(F)cc1` as listed: -5%, >57
# `O=[N+]([O-])c1ccc(CCO)cc1` as listed: 19%, /
# `COc1cccc(C2=NOC(C(=O)Nc3cccc(C(C)=O)c3)C2)c1` (configuration not stated) as listed: 0%, >57

# More results follow.
SMILES,Anthrax LT inh,Prx2 Sm inh
COc1cccc(-c2nc(-c3ccccc3)no2)c1,-5%,>57
O=C(NCC1CCCO1)C1CCN(S(=O)(=O)Cc2ccccc2)CC1 (configuration not stated),4%,>57
COc1ccc2cc(S(=O)(=O)N3CCN(C)CC3)ccc2c1,-4%,>57
O=C(NC1CCCCC1)N(Cc1ccc(F)cc1)Cc1nc2ccccc2c(=O)[nH]1,-6%,>57
O=C(COc1ccc(Br)cc1CO)Nc1ccc(F)cc1,4%,>57
COc1ccc(CCNC(=O)C2CCN(c3nn4c(=O)cc(C)nc4s3)CC2)cc1OC,-6%,>57
CSc1nc2ccc(S(=O)(=O)N3CCOCC3)cc2s1,5%,>57
Cc1ccc(-c2noc(-c3ccccc3C(=O)N3CCCC3)n2)cc1,6%,>57
Clc1cc(NCc2cccs2)ccc1N1CCOCC1,-23%,>57
CCN=C(NCC)SC1CC(=O)N(c2cccc(OC)c2)C1=O (configuration not stated),0%,/
COc1cc2c(cc1OC)C1=C(C#N)CN(CC(=O)O)CN1CC2,-1%,>57
CCCCCCN(C(=O)CCCCCN1C(=O)NC(c2ccccc2-c2ccccc2)C(C(=O)OCc2ccccc2)=C1C)C(C(=O)NCCCC)c1ccc(OCC(=O)OC)c(C(=O)OC)c1 (configuration not stated),26%,/
CC(=O)N1CCC2(CCCN(Cc3ccc(C#N)cc3)C2)CC1,6%,>57
CCSc1nnc([C@@H]2CCCN2C(=O)OC(C)(C)C)o1,10%,>57
C=CCSc1nnc(NC(=O)CSc2nnc(C)s2)s1,-11%,>57
O=C(NCC1CC1)C1CCCN(S(=O)(=O)c2ccc(-n3cnnn3)cc2)C1 (configuration not stated),-7%,>57
Fc1cccc(Cl)c1-c1nnc2ccc(N3CCOCC3)nn12,-20%,>57

# Compound activity from PubChem.
